# Screens: PubChem, National Center for Advancing Translational Sciences (NCATS)
# TRPV1 PAM = human TRPV1 potentiation. Q8NER1. TRPV1-expressing cells, Fluo-8 calcium influx, capsaicin EC20 potentiation; host cell line not named in the record; control for the full effect not named in the record. potentiation, % at 8.33 µM. actives 0.02% (n = 320,000); active means potentiation above 80%; inconclusive means 30% to 80%; inactive means below 30%; further: 0% is about no effect
#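 Cells expressing TRPV1 were dye-loaded with Fluo-8 and read kinetically: 10 s baseline, 3 min after compound (agonist portion), then 2 min after EC20 capsaicin (allosteric enhancer portion). Calcium-bound dye fluorescence at 480/520 nm.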
# Six1-Eya2 blk = Six1/Eya2 interaction inhibition. Q15475+O00167. AID 651725. actives 0.56% (n = 360,000). activity change, % (test concentration not listed). AlphaScreen GST-Six1/His-Eya2 binding, biochemical; stronger effect = lower value; control for the full effect not named in the record; in the data active = activity change below about -65%; inconclusive = about -30% to -65%; inactive = above about -30%; further: on the % scale 0 is the no-effect control and ±100 the full control effect; compound concentration not given in the record
# Target sequence (O00167 whole entry, looked up): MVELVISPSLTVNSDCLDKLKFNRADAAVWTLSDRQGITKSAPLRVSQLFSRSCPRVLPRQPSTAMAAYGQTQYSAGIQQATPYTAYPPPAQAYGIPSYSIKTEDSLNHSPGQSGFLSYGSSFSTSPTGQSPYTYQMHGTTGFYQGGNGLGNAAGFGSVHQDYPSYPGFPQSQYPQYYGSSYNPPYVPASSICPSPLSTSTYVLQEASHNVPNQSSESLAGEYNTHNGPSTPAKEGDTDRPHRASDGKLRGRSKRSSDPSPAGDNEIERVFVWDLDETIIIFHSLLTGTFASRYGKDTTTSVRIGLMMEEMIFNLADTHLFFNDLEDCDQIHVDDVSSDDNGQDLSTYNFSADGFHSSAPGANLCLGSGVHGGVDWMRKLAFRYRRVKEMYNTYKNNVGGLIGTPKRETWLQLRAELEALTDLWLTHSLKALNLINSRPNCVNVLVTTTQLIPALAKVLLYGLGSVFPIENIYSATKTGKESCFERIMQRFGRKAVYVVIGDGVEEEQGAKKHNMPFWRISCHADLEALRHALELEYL
# Target sequence (Q15475 whole entry, looked up): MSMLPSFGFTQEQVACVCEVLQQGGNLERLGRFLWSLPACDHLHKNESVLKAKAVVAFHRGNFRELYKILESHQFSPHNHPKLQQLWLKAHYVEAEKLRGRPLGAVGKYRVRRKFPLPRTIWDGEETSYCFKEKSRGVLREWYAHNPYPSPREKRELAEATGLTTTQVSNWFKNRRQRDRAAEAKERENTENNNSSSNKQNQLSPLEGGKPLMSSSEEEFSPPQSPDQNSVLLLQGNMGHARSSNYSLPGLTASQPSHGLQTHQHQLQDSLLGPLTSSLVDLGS
#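 AlphaScreen with GST-Six1 and His-Eya2 (5X mix: 250 nM and 500 nM), glutathione donor and nickel acceptor beads; buffer 50 mM Tris pH 8.0, 300 mM NaCl, 1 mM TCEP; 1 h at 37 C in the dark.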
# D2 PAM = positive allosteric modulators of human D2 dopamine receptor. DiscoveRx D2 beta-arrestin cells, luminescence, 90 min; 100% = 57 uM dopamine signal. potentiation, % (no concentration beside the values). actives 0.23% (n = 360,000); active = potentiation of 50% or more; inconclusive = 30% to 50%; inactive = 30% or less;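 further: compound concentration not given in the record; tested on top of an EC20 dose of dopamine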
#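 PathHunter beta-arrestin assay in DiscoveRx D2 cells. Compounds were added with an EC20 of dopamine (50 nM final) for 90 min at 37 deg C. Luminescence was read 1 h after detection reagent, with 57 uM dopamine as the EC100 control.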
# CtBP-E1A blk = blocks the CtBP interaction with E1A; AlphaScreen GST-E1A/His-CtBP binding, 1536-well; stronger effect = lower value; control for the full effect not named in the record; activity change, % (test concentration not listed); actives 0.49% (n = 340,000); in the data active means activity change below about -65%; inconclusive means about -30% to -65%; inactive means above about -30%; further: on the % scale 0 is the no-effect control and ±100 the full control effect; compound concentration not given in the record
#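 Protein mix (5X: 125 nM each GST-E1A, His-CtBP) was incubated with pinned compound 2 h at 37 deg C in dark, in 50 mM Tris pH 8.0 buffer with 300 mM NaCl. Glutathione donor and nickel acceptor beads followed; AlphaScreen signal read after 1 h.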
# TRPML1 blocker = inhibitors of human TRPML1 channel; activity change, negative = inhibition, % (no concentration beside the values); actives 0.02% (n = 390,000); AID 624415; TRPML1-inducible cells, Ca2+ dye fluorescence, FDSS; stronger effect = lower value; inhibition of EC80 agonist-evoked calcium signal; in the data active means activity change below about -50%; inconclusive means about -30% to -50%; inactive means above about -30%;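 further: stimulus is agonist 54-4 at its EC80 concentration; on the % scale 0 is the no-effect control and ±100 the full control effect; compound concentration not given in the record; the text of the record puts the active cut at -80%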
#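 Tet-induced TRPML1-DL cells loaded with Ca8 no-wash calcium dye were read kinetically on FDSS. Compound addition was followed by EC80 agonist 54-4 (4 uM final); inhibition was read over 110 s.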
# TRPML1 agonist = activates the human TRPML1 channel; TRPML1-expressing cells, Ca2+ dye fluorescence, FDSS; host cell line not named in the record; reference of the full effect not given here; activation, % (concentration not given with the values); actives 0.12% (n = 410,000); in the data active = activation above about 50%; inconclusive = about 30% to 50%; inactive = below about 30%; further: 0% is about no effect; the text of the record puts the active cut at 80%
#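 Calcium fluorescence on an FDSS kinetic reader gave the read-out. Tet-induced TRPML1-DL cells were plated overnight, dye-loaded (Ca8 with quencher, 45-90 min, room temperature, dark), then read 110 s after compound addition, and again 110 s after 4uM final 54-4 (EC80).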
# * = called active by the depositor; ? = inconclusive; . = no result given; & = joins results of further samples.
SMILES,TRPV1 PAM,Six1-Eya2 blk,D2 PAM,CtBP-E1A blk,TRPML1 blocker,TRPML1 agonist
COc1ccccc1-n1cc(CN2CCCC(CO)(Cc3cccc(Cl)c3)C2)cn1 (stereo unspecified),-1.8,-3.3,-29.2,.,-3.9,-1.0
CC(CCc1ccco1)NC(=O)Cn1ncc2c1-c1ccccc1OC2 (stereo unspecified),14.7,-7.1,9.6,-1.2,2.5,-1.2
O=[N+]([O-])c1ccccc1OCCCOc1cccc2cccnc12,17.5,-12.4,-6.1,-11.6,-7.7,-0.2
CCOC(=O)/C=C/c1ccc2oc3ccccc3c(=O)c2c1,-0.9,-0.6,-0.3,4.7,10.7,-0.6&-0.7
c1csc(Cn2c(-c3cccs3)nc3ccccc32)c1,20.5,-11.3,0.2,-10.8,12.4,0.3
O=C(CNC1CCCCC1)Nc1cc(S(=O)(=O)N2CCOCC2)ccc1Cl,2.6,-16.3,6.1,-1.4,4.9,-0.5
Cc1ccc2cc(CN(Cc3ccco3)C(=O)NC3CCCCC3)c(=O)[nH]c2c1C,-5.1,-7.6,-10.0,-13.4,-5.2,1.4
COC(=O)CCc1nc2ccccc2nc1OC,2.0,3.6,-2.1,4.2,-10.4,0.9
O=C(CSc1nnc(-c2c[nH]c3ccccc23)o1)c1ccc(-c2ccccc2)cc1,-4.0,-11.2,-6.4,0.0,-7.4,-0.4
O=S(=O)(NCCN1CCOCC1)c1ccc(F)c(Cl)c1,-11.2,-3.0,-4.1,4.6,4.5,-0.6
CCN(CC)Cc1c(C(=O)N/N=C/c2ccc(OCc3ccccc3C)cc2)nnn1-c1nonc1N,21.0,-10.4,-15.0,-6.0,-14.6,0.2
O=C(CNC(=O)c1cccs1)N/N=C/c1c[nH]c2ccccc12,3.9,-3.7,-12.3,.,-11.8,-0.2
C/C(=N/OC(=O)c1cccc(C(F)(F)F)c1)c1cnccn1,-0.4,-2.8,8.3,-2.0,-2.6,0.8
Cc1cc(NC(=O)c2ccc(C)c(C)c2)no1,-28.8,3.2,-4.7,.,17.1,-0.5
COc1ccncc1-c1csc(C(O)c2ccccc2)n1 (stereo unspecified),.,3.9,-12.2,3.0,.,-0.5
C/C(Cl)=C/Cn1c(N2CCCC2)nc2c1c(=O)[nH]c(=O)n2C,-4.7,0.7,4.7,-0.2,3.0,0.0
CCCCOC(=O)C1=C(C)N(C)C(=O)NC1c1cc2c(cc1Br)OCO2 (stereo unspecified),.,-2.7,-6.0,-1.4,1.3,-1.0
CCCSC1=NN2CCCC(=O)N=C2S1,5.7,4.3,-2.9,10.1,5.0,0.6
CC(=C/C(=O)O)/C=C/c1ccco1,6.1,2.9,-2.4,0.5,14.5,0.4
COc1ccc(OC)c(C2=NS(=O)(=O)N(C)C(C(=O)Nc3ccc(C(C)=O)cc3)=C2)c1,21.6,-13.2,-14.2,-14.4,-12.9&3.9,0.4&1.0
CCC/C=C(\CCC)C(NC(=O)c1ccc(C(=O)OC)cc1)c1ccc(C(=O)OC)cc1 (stereo unspecified),.,0.5,-3.0,8.4,10.3,2.3
Cc1nnc(NC(=O)CSc2nccn2-c2cccc(C)c2C)s1,-3.3,5.8,-0.2,7.1,49.9,0.8
CC(C)Cn1c(CCCNC(=O)c2ccco2)nc2ccccc21,-5.0,-4.1,-20.8,6.2,1.9,-0.1
Clc1cccc(CON/C=N/c2ncnc3sccc23)c1,-13.5,10.1,-2.3,13.6,-6.1,1.0

# Of the compounds above, five have a Cl atom:
SMILES,TRPV1 PAM,Six1-Eya2 blk,D2 PAM,CtBP-E1A blk,TRPML1 blocker,TRPML1 agonist
COc1ccccc1-n1cc(CN2CCCC(CO)(Cc3cccc(Cl)c3)C2)cn1 (stereo unspecified),-1.8,-3.3,-29.2,.,-3.9,-1.0
O=C(CNC1CCCCC1)Nc1cc(S(=O)(=O)N2CCOCC2)ccc1Cl,2.6,-16.3,6.1,-1.4,4.9,-0.5
O=S(=O)(NCCN1CCOCC1)c1ccc(F)c(Cl)c1,-11.2,-3.0,-4.1,4.6,4.5,-0.6
C/C(Cl)=C/Cn1c(N2CCCC2)nc2c1c(=O)[nH]c(=O)n2C,-4.7,0.7,4.7,-0.2,3.0,0.0
Clc1cccc(CON/C=N/c2ncnc3sccc23)c1,-13.5,10.1,-2.3,13.6,-6.1,1.0

# Next part.
SMILES,TRPV1 PAM,Six1-Eya2 blk,D2 PAM,CtBP-E1A blk,TRPML1 blocker,TRPML1 agonist
COc1ccc(S(=O)(=O)N2CCC(C(=O)NCCC(=O)Nc3nccs3)CC2)cc1,10.3,-1.1,-5.1,1.0,4.4,-0.5
COc1cccc(C(C2=C(O)CC(C)(C)CC2=O)C2C(=O)CC(C)(C)CC2=O)c1 (stereo unspecified),7.2,12.3,-0.8,1.5,9.6,0.1
O=C(NC(=S)N1CCN(C2CCCCC2)CC1)c1ccccc1,-1.5,-1.8,-1.8,0.1,20.6,0.0
CC1=C(C#N)C(=O)NC(=O)/C1=C/c1ccc(-c2ccc(S(N)(=O)=O)cc2)o1,3.6,-20.9,28.6,0.7,-1.1,-0.2
Cn1c(=O)c(C(=O)Nc2ccccn2)c(O)c2ccccc21,-12.2,-1.0,-5.5,0.1,-7.9,1.7
N#Cc1ccc(-c2nc3ccc(Br)cn3c2Cc2cccc(F)c2)cc1,.,6.3,-4.9,9.4,59.2,0.7
CC(C)CN1C(=O)/C(=C/c2cccs2)NC1=S,-11.9,-7.5,-8.9,-8.0,3.3,-0.5
CC(=O)N(/N=C/c1ccc(C)cc1)c1nc(CCl)cs1,?,2.8,-4.4,5.6,32.8,-0.1
Cn1c(N)c(C(=O)COC(=O)/C=C/c2ccc(Cl)cc2Cl)c(=O)n(C)c1=O,.,-19.9,-16.2,-11.8,-10.0,0.5
Cn1c(N)c(C(=O)COC(=O)c2ccc(Cl)c(S(=O)(=O)N3CCCC3)c2)c(=O)n(C)c1=O,-0.8,-15.8,-10.8,.,9.7,-0.1
Cc1cccc(N(C(=O)c2csnn2)C(C(=O)NCc2ccccc2)c2cccs2)c1 (stereo unspecified),-2.1,1.0,-2.1,11.6,5.4,-0.4
CCOC(=O)C1=C(CN2CCN(C(=O)c3ccco3)CC2)NC(=O)NC1c1ccc(Cl)cc1 (stereo unspecified),5.1,-1.0,-7.2,0.0,-1.7,0.1
C[C@@H]1COc2cc(N3CCN(Cc4ccccc4F)CC3)ccc2S(=O)(=O)N1,.,-8.5,.,-0.8,.,-0.6
CCC(C(=O)OC(C)C)c1ccc2ccccc2c1 (stereo unspecified),1.9,17.1,-7.2,21.9,-4.7,0.4
CCOC(=O)C(C)NC(=O)c1cn(-c2ccc(OC)cc2)c(=O)c2ccccc12 (stereo unspecified),-1.3,2.7,-3.7,4.6,35.3,1.2
O=C(NCc1ccccc1F)C1CCN(C(=O)NCc2ccccc2)CC1,-0.9,1.6,-16.1,-6.8,14.1,-0.1
CCC(C)(C)NC(=O)CN(C(=O)c1csnn1)c1ccccc1-c1ccccc1,-18.7,5.8,-13.3,0.8,9.6,-0.8
COc1ccccc1Cc1nnnn1CC(=O)O,7.0,3.0,-11.8,4.1,-4.3,0.1
COc1ccc(-c2nc(N)ncc2-c2csc(C)n2)c(O)c1OC,10.4,1.8,-6.0,-9.4,-13.7,0.4
Cc1nc(SCc2ccc([N+](=O)[O-])cc2)nc2ccccc12,28.6,-3.3,1.6,-8.7,38.1,2.7
Cc1ccc(C(=O)N2CCN(S(=O)(=O)c3ccccc3C#N)CC2)cc1S(=O)(=O)N1CCOCC1,14.0,1.4,-1.9,0.4,-1.9,-0.1
COCCNC(=O)CN(C)S(=O)(=O)c1ccc(Br)cc1,13.7,3.7,-4.5,1.3,-2.1,-0.7
COc1ccc(CCN(C(=O)c2snc(C(N)=O)c2N)C(C(=O)NCC2CCCO2)c2ccc(F)cc2)cc1OC (stereo unspecified),13.9,-19.8,-3.6,0.0,-4.5,-1.4
CCCCc1nc2cc(C(=O)N3CCCCC3C(=O)OC)ccc2o1 (stereo unspecified),-2.1,0.0,1.8,2.1,-9.9,0.2
S=c1[nH]nc(COc2ccc3c(c2)OCO3)n1-c1ccccc1,5.0,-9.9,-20.2,1.1,11.7,-0.6
CCn1cc(CNCc2cn(-c3ccccc3C)nc2-c2ccc(OC)c(F)c2)cn1,-20.3,-22.6,-14.5,11.6,-6.4,0.5
Cc1cc(S(=O)(=O)N(C)CCc2ccccc2)ccc1-n1cnnn1,-25.6,0.0,-11.8,4.3,-26.6,-0.1
O=C(Nc1cccc(Cl)c1)c1ccc(F)c(S(=O)(=O)NCc2ccc3c(c2)OCO3)c1,7.6,-18.7,-8.4,-16.1,-10.1,3.1
O=C(c1ccc(Cl)cc1)N1CCN(c2ncccn2)CC1,-0.6,-0.9,-4.2,7.5,19.1,-0.5
Cc1nnc(Nc2ccc3c(c2)ncn3C)c2ccccc12,4.1,-0.8,-7.8,-4.6,1.5,-1.2
CCc1onc(C)c1C(=O)Nc1cc(C)ccc1OC,11.3,-2.8,-8.0,3.4,-10.9,-1.1
COc1ccccc1Cn1c(=S)[nH]c2cc(C(=O)NCC3CCCO3)ccc2c1=O (stereo unspecified),-11.5,13.4,-6.4,3.3,1.8,0.7
COC(=O)c1c(C(=O)OC)c2n(c1C)CCC2,3.7,-0.9,-6.2,3.1,9.8,-0.5
CC(C)=CC(=O)N1CCC(N2CCC(C(=O)NCC3CCCO3)CC2)CC1 (stereo unspecified),7.5,-4.2,-4.5,0.7,18.3,0.2
COc1ccccc1Oc1cc(F)nc(N)n1,1.9,-2.9,-3.4,5.3,-0.6,-0.2
c1ccc2oc(-c3[nH]ncc3CN3CCC(N4CCSCC4)CC3)cc2c1,-6.0,-15.8,-8.9,-28.2,9.7,3.3
O=C(Nc1ccc(CN2CCCCC2)cc1)Nc1ccccc1Cl,-12.6,0.4,-9.5,-10.7,-18.5,1.1
COC1(C)CC2C(CC1OC(=O)c1cc([N+](=O)[O-])cc([N+](=O)[O-])c1)C2(C)C (stereo unspecified),-1.6,?,23.9,-18.4,69.4,1.6
CCOc1c(C)cnc2c1c(=O)n(Cc1ccc(Cl)cc1)c(=O)n2C,-0.6,23.1,-7.3,12.9,1.8,1.5
CCCCOc1ccc(/C=C/C(=O)N(CC)CC(=O)Nc2ccc3c(c2)OCCO3)cc1OC,25.1,-8.0,-5.5,-5.4,5.8,1.5
COc1ccc2oc(=O)c(C(=O)Nc3ccccc3-c3ccccc3)cc2c1,-6.1,3.9,-11.7,2.5,16.2,-0.2
O=S(=O)(c1ccccc1)C1(C2CC(c3ccccc3)=NO2)CC(O)C1 (stereo unspecified),-3.0,0.4,-4.8,3.2,-0.2,-0.5
Cn1c(CCc2ccccc2)nnc1SCC(=O)N1CCCC1,3.3,-1.6,-2.9,0.1,-12.8,1.0
O=C(Oc1cccc2ccccc12)c1cc(Cl)nc2ccccc12,-1.5,-1.7,-3.4,5.0,1.6,-0.4

# Laid out differently: results already given.
molecule | TRPV1 PAM | Six1-Eya2 blk | D2 PAM | CtBP-E1A blk | TRPML1 blocker | TRPML1 agonist
CCOc1c(C)cnc2c1c(=O)n(Cc1ccc(Cl)cc1)c(=O)n2C | -0.6 | 23.1 | -7.3 | 12.9 | 1.8 | 1.5
CCCCOc1ccc(/C=C/C(=O)N(CC)CC(=O)Nc2ccc3c(c2)OCCO3)cc1OC | 25.1 | -8.0 | -5.5 | -5.4 | 5.8 | 1.5

# Compounds were not picked by outcome; any-hit rate near 0.95%.
